# High-throughput results as filed in PubChem.
# RE007 growth inh: less growth of the S. pombe RE007 Vpr strain | S. pombe RE007 Vpr strain, BacTiter-Glo ATP luminescence, 24 h; control for the full effect not named in the record | Potency, µM (series often up to 92.2 µM), for the others: top-dose activity change, negative = less growth | hit rate 0.21% among 360,000; active = well fitted falling curve with a large enough effect; inconclusive = small, poorly fitted or top-dose-only effect; inactive = no such curve, though single readings can be large or run the other way;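 note: % is set by controls: 0 for no effect and ±100 for the full control effect; nearly all actives have a fitted effect of over 50% in size; the assay follows cell death caused by Vpr and the record does not say whether a fall means rescue or toxicity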
#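 Fission yeast RE007 carrying one integrated HIV-1 vpr copy, seeded at OD 0.01 in PMG+AL medium with 23 nL pinned compound. Grown 24 h at 30 degrees; viability read by BacTiter-Glo luminescence after 5 min.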
# Cruzain inh noDet: cruzain (T. cruzi) inhibition without detergent; Potency, µM, inactives show max response, negative = inhibition, usual class: inhibitors; hit rate 2.3% among 200,000; P25779; AID 1476; purified cruzain, Z-FR-AMC fluorescence, no detergent;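 note: plate controls were enzyme without inhibitor for no effect and buffer without enzyme for full effect; nearly all actives have a fitted effect of over 40% in size; top concentration of the series not given in the record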
# Target sequence (P25779 123-467 limits assumed): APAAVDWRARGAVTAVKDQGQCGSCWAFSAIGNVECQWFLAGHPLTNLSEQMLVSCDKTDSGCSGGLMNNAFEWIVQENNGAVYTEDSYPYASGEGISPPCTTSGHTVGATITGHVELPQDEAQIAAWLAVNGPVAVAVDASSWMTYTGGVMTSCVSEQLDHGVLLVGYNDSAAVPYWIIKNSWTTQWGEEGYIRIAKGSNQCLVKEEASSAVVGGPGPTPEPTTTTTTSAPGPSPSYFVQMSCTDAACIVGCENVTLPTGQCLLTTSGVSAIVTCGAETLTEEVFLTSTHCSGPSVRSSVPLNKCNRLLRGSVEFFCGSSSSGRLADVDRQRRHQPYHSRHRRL
#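 Purified cruzain at 1.5 nM, pre-incubated 15 min with compound at room temperature in 100 mM sodium acetate pH 5.5, 5 mM DTT, 0.00005% Triton X-100. Reaction started with 2 uM Z-FR-AMC; AMC fluorescence increase over 60 s gives rate.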
# LASV entry inh: blocks Lassa virus binding to or entry into cells; hit rate 1.2% among 300,000; Potency, µM (titrated, usually from 37.9 µM), for the others: at the top dose activity change, negative = inhibition, actives largely listed as inhibitors; Lassa virus pseudotype entry inhibition, cell reporter; control for the full effect not named in the record; AID 540256; active means well fitted inhibition curve with a large enough effect; inconclusive means small, poorly fitted or top-dose-only effect, or effect the other way; inactive means flat fitted curve, though single readings scatter; tested in HEK293 cells; note: % is set by controls: 0 for no effect and ±100 for the full control effect; nearly all actives have a fitted effect of over 50% in size; luciferase read-out
# SARS PLP yeast: SARS-CoV PLP inhibition in yeast; hit rate 0.19% among 330,000; S. cerevisiae expressing SARS-CoV PLpro, growth rescue; control for the full effect not named in the record; Potency, µM (titrated, usually from 32.9 µM), for the others: at the highest dose activity, positive = growth rescue; active means well fitted rising curve with a large enough effect; inconclusive means small, poorly fitted or top-dose-only effect; inactive means no such curve, though single readings can be large or run the other way; note: 0% is about no effect; nearly all actives have a fitted effect of over 55% in size; growth read by luminescence after 48 h
# Marburg entry inh: inhibitors of Marburg virus binding or cell entry | AID 540276 | Potency, µM (doses to about 37.8 µM), inactives show top-dose activity change, negative = inhibition, actives largely listed as inhibitors | hit rate 1.8% among 300,000 | Marburg virus pseudotyped entry inhibition, cell reporter; control for the full effect not named in the record; about a third of the inactives were read at about 46 µM; active = well fitted inhibition curve with a large enough effect; inconclusive = small, poorly fitted or top-dose-only effect, or effect the other way; inactive = flat fitted curve, though single readings scatter; tested in HEK293 cells; about a fifth of its hits are not listed in these tables; note: % is set by controls: 0 for no effect and ±100 for the full control effect; luciferase read-out
# NS1 inh: blocks influenza NS1 protein function; S. cerevisiae slowed by influenza A NS1, growth recovery by OD600; Potency, µM (top dose mostly 46.1 µM), for inactives: at the top dose activity, positive = more growth; hit rate 0.4% among 270,000; active means well fitted rising curve with a large enough effect; inconclusive means small, poorly fitted or top-dose-only effect; inactive means no such curve, though single readings can be large or run the other way; note: nearly all actives have a fitted effect of over 50% in size
#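 Growth recovery, yeast-based: influenza A NS1 expressed in S. cerevisiae causes slow growth, and suppressors are detected by OD600. The parent strain without NS1 is used as positive control.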
# 2A StopGo: lowers the luciferase signal of an FMDV 2A StopGo reporter; Potency, µM (top dose mostly 57.9 µM), for the others: top-dose signal change, negative = less light; hit rate 1.2% among 410,000; human cells with a luciferase reporter of 2A StopGo recoding; control for the full effect not named in the record; active = well fitted falling curve with a large enough effect; inconclusive = small, poorly fitted or top-dose-only effect; inactive = no such curve, though single readings can be large or run the other way; tested in HEK293T cells; note: % is set by controls: 0 for no effect and ±100 for the full control effect; nearly all actives have a fitted effect of over 45% in size; luciferase light after 4 h
# Cruzain Triton: inhibitors of Trypanosoma cruzi cruzain with detergent; AID 1478; P25779; purified cruzain, Z-FR-AMC fluorescence, 0.01% Triton; Potency, µM, without a hit: max response, negative = inhibition, most hits filed as inhibitors; hit rate 0.43% among 200,000;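 note: plate controls were neutral wells for no effect and buffer without enzyme for full effect; nearly all actives have a fitted effect of over 40% in size; top concentration of the series not given in the record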
#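 Cruzain (1.5 nM) preincubated 15 min at RT with compound in 100 mM sodium acetate pH 5.5, 5 mM DTT, 0.01% Triton X-100. Reaction started with 2 uM Z-FR-AMC; AMC fluorescence (ex 360/em 450 nm) change over 60 s gave rate.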
# An asterisk follows results filed as active; ? = inconclusive; / = not tested or not shown; & = joins results of further samples; [ ] = dose if it differs, or a comment. Unless noted, calls come from the whole dose curve; as a rule, active = well fitted curve in the direction sought with a large enough effect; inconclusive = small, poorly fitted or top-dose-only effect, or another doubt; inactive = no such curve, though single readings can be large; an effect the other way counts as inactive or inconclusive. Potency is the fitted concentration of half-maximal effect. Rows are unselected; any-hit rate near 4.8%.
# Each structure is followed by: Marburg entry inh	Cruzain inh noDet	2A StopGo	LASV entry inh	Cruzain Triton	SARS PLP yeast	NS1 inh	RE007 growth inh
> O=C(Oc1ccc(OC(=O)c2ccco2)c(S(=O)(=O)c2ccc(Br)cc2)c1)c1ccco1
    -10%	25µM*	56%[activator]	-22%	-0.8%	-9%	9%	12%
> CS(=O)(=O)NN1C(=O)c2ccccc2NC1c1c[nH]c2ccccc12 (stereo not given)
    /	9%	5%	/	-2.4%	12%	0%	-9%
> O=C(N/N=C/c1cn(-c2ccccc2)nc1-c1cccs1)c1ccncc1
    ?	?	?	?	-3.7%	-4%	-2%	-8%
> O=Cc1c(NCCCN2CCCC2=O)c2ccccc2[nH]c1=O
    ?	/	5%	13%	/	0%	3%	-9%
> Cc1nnc2sc(-c3ccc(NC(=O)c4ccc(-c5ccc(Cl)cc5Cl)o4)cc3)nn12
    10%&10%	/	-1%	-13%	/	/	17%	-10%
> COc1ccc(C(C)=O)c(OC(=O)c2ccc(OC)c(OC)c2)c1
    21%	13%	-22%	8%	1.2%	1%	-16%	-6%
> COc1ccc(CCNC(=O)c2ccc3c(c2)nc2n3CCOC2)cc1OC
    /	0%	-17%	1%[46.1 µM]	0.5%	/	/	/
> COc1cc(/C=N/Nc2nc(C)cc(=O)[nH]2)ccc1OC(=O)c1cccnc1
    -13%[46.1 µM]	/	-17%	-10%[46.1 µM]	/	3%	/	29%
> O=C(NCCCn1ccnc1)c1cc(Br)c(Br)s1
    /	/	0%	/	/	0%	1%	22%
> Brc1ccc(NC2=Nc3ccccc3CC2)cc1
    -24%	0%	6%	-26%	-5.4%	-2%	-12%	6%
> CN(C)C(=O)c1c([N+](=O)[O-])c(C(C)(C)C)nn1C
    -8%	20%	-11%	2%	0.0%	5%	-2%	-17%
> Cc1nc(C)c(C(=O)NCc2ccccc2Cl)o1
    0%	-19%	?	-6%	2.7%	13%	4%	7%
> O=c1c2ccccc2ncn1-c1cccc(Br)c1
    -2%[46.1 µM]	/	0%	?	/	2%	-15%	?
> COc1cc(C)ccc1OCCOc1c(C)cc(Cl)cc1Cl
    28%	-12%	-24%	-5%	-6.9%	-1%	-9%	-4%
> O=C(N/C(=C/c1ccc(Br)cc1)C(=O)N1CCCC1)c1cccs1
    -20%[46.1 µM]	/	59%[activator]	-20%[46.1 µM]	/	-4%	/	3%
> CC1Cc2ccccc2N1C(=O)CSC1=NCCS1 (stereo not given)
    ?	-8%	1%	-8%	-3.4%	0%	-9%	2%
> COc1ccc(-c2ccc(NS(=O)(=O)c3ccccc3Cl)cc2)nn1
    /	?	5%	?	-5.8%	/	/	/
> COCCNC(=O)[C@@H]1CSC2c3ccc(OC)c(OC)c3C(=O)N21 (stereo not given in full)
    /	/	-21%	/	/	-2%	1%	15%
> COc1cccc(-c2nc3n(n2)C(c2ccccc2Cl)C(C(N)=O)=C(C)N3)c1 (stereo not given)
    /	10%	-15%	/	-2.9%	?	0%	2%
> CCc1nn(CC(=O)NCCCN2CCN(C)CC2)c(=O)c2cc3occc3n12
    7%&7%[46.1 µM]	-2%	-8%&-23%	28%[46.1 µM]	-5.1%	3%	-6%	0%
> COc1nnc(-c2ccc(N3CCCCC3)c(N)c2)c2ccccc12
    -5%[46.1 µM]	/	-22%	?	/	/	-50%	-2%
> Cc1ccc(NC(=O)CN(C)CC(=O)Nc2ccccc2C#N)cc1
    -3%[46.1 µM]	/	-14%	-10%	/	-1%	/	14%
> COc1ccc(Nc2ncnc3sccc23)cc1
    ?	/	52%[activator]	16%	/	-4%	12%	?
> CS(=O)(=O)N(CC(=O)Nc1ccc(Br)cc1F)C1CCCCC1
    ?	/	13%	?	/	-10%	-8%	0%
> CCc1nnc(-n2nc(C)cc2-c2ccccc2)n1N
    5%	3%	-20%	8%	3.6%	2%	4%	7%
> CC(C)(C)n1nnnc1C(c1cccs1)N1CCCC2(CCCCC2)C1 (stereo not given)
    ?	-16%	-20%	-30%	-6.4%	-53%	-40%	5%
> CCCCNC(=O)CSC1=Nc2ccccc2C2=NC(CCC(=O)NCc3ccccc3OC)C(=O)N12 (stereo not given)
    /	4%	-2%	7%[46.1 µM]	1.8%	/	/	/
> O=S1(=O)[C@H]2C[C@@H]3C=C[C@]2(CN1Cc1ccc(C(F)(F)F)cc1)O3
    /	/	-14%	/	/	0%	5%	-6%
> CCCCn1c(-c2ccsc2)nc2c1c(=O)[nH]c(=O)n2CCC
    -12%	9%	-13%	-23%	2.0%	-4%	-7%	-2%
> O=C(NCCCN1CCCC1)c1cc(Sc2ccc(F)cc2)nc2ccccc12
    ?	/	-13%	/	/	-6%	/	0%
> Cc1cccc(C(=O)N2CCc3c([nH]c4ccccc34)C2CC(C)C)n1 (stereo not given)
    ?	/	23%	12%[46.1 µM]	/	-2%	1%	6%
> CCCCn1c(N)c(N(CCC(C)C)C(=O)Cc2ccc(S(=O)(=O)N3CCOCC3)s2)c(=O)[nH]c1=O
    ?	/	0%	?	/	-2%	/	-7%
> COc1cccc(C2C(C#N)=C(N)Oc3cc(N)ccc32)c1OC (stereo not given)
    7%	6%	0%	-4%	-4.7%	0%	5%	1%
> CCCc1nc2ccccc2c(=O)n1-c1ccc(OC)cc1
    -13%	-2%	-10%	-25%	-1.4%	5%	-9%	2%
> COc1cc(C2c3c(-c4c(C)cc(C)cc4O)n[nH]c3C(=O)N2CCO)cc(OC)c1OC (stereo not given)
    -12%[46.1 µM]	7%	-8%	?	-0.1%	/	/	/
> Cc1c(C(=O)N(C)Cc2ccccc2)oc2c(Cl)cccc12
    -15%[46.1 µM]	/	8%	-11%[46.1 µM]	/	-2%	-38%	-10%
> CCCOC(=O)C1=C(C)NC2=C(C(=O)C(C(=O)OC)C(C)C2)C1c1ccc(N(C)C)cc1 (stereo not given)
    6%	21%	41%[activator]	26%	-6.4%	-11%	-3%	20%
> CCN(CC)CCNC(=O)CNC(=S)N(CCCN1CCOCC1)Cc1cccs1
    ?	/	-8%	?	/	0%	-1%	-13%
> CC(C)Oc1ccc(NC(=O)C2CCCNC2=O)cc1 (stereo not given)
    12%	7%	10%	-1%	1.1%	-10%	-1%	2%
> O=C1/C(=C/c2cccnc2)N2CCC1CC2
    1%[46.1 µM]	/	-7%	28%[46.1 µM]	/	2%	/	-17%
> CCc1ccc2[nH]c(=O)c(CN(Cc3ccc(OC)cc3)Cc3nnnn3CCOC)cc2c1
    14µM*	?	?	?	-3.8%	5%	-39%	-5%
> CCCC(NC(=O)COc1cc2c(c3oc(=O)c(C)c(C)c13)CCC(C)(C)O2)C(=O)O (stereo not given)
    /	/	-1%	/	/	1%	6%	2%
> CCN(CC(=O)Nc1c(F)cccc1F)C(=O)CCCc1nc2ccccc2c(=O)[nH]1
    ?	/	-19%	?	/	4%	/	14%
> Cc1nn(Cc2ccc(Cl)cc2)c2sc(C(=O)OCC(N)=O)cc12
    1%	9%	-19%	-12%	0.1%	1%	2%	9%
> Cc1ccc(-c2nc3ncccn3c2NC2CCCC2)o1
    -1%	-5%	-20%	-11%	-3.0%	-3%	-33%	-12%
> Cc1c(C(=O)NCc2ccccc2Cl)sc2nc3n(c(=O)c12)CCCC3
    /	-26%	33%[activator]	-2%[46.1 µM]	-6.2%	/	/	/
> Cc1ccc(S(=O)(=O)N(Cc2ccccc2F)C(=O)N2CCN(C)CC2)cc1
    -7%	/	-4%	22%	/	-3%	/	13%
> Fc1ccc(-c2cnc3n2CCCCC3)cc1
    -1%[46.1 µM]	/	15%	1%[46.1 µM]	/	-3%	/	-13%
> COc1cc(C2SCC(=O)N2Cc2ccccc2)cc(OC)c1OC (stereo not given)
    /	/	-12%	/	/	-3%	-1%	-15%
> O=C(Nc1ccc2c(c1)OCO2)NC1(C(F)(F)F)Oc2ccccc2O1
    20%	-6%	13%	-4%	-3.8%	-5%	-2%	-1%[3.69 µM]
> COc1ccc(NC(=O)/C(=C/c2ccc3c(c2)OCO3)NC(C)=O)cc1
    23%	8%	1%	12%	-8.0%	9%	13%	12%
> CCOC(=O)c1c(/N=C/C2C(=O)CCCC2=O)sc(C)c1C
    10%	3%	-22%	0%	-3.5%	-27%	-2%	?
> COc1ccc(C(=O)NC(c2ccccc2Cl)c2cc(Cl)c3cccnc3c2O)cc1 (stereo not given)
    /	-7%	-13%	?	3.1%	/	/	/
> Cc1cccc(C)c1NC(=O)CSc1nc2ccccc2c(=O)[nH]1
    2%	?	15%	-5%	5.3%	1%	-2%	-1%
> O=C(c1cccc(F)c1)N1CCC(c2c[nH]c3ccccc23)(c2c[nH]c3ccccc23)CC1
    ?	-18%	?	10%[46.1 µM]	-6.7%	/	/	/
> Cc1cc(NC(=O)COC(=O)c2cc(S(=O)(=O)N(C)c3ccccc3)ccc2Cl)no1
    /	/	-22%	/	/	-7%	-2%	0%
> Clc1ccccc1SCc1nc2ccccc2[nH]1
    -1%	0%	30%	0%	-1.7%	-15%	-20%	?
> O=C(c1ccc(COc2ccccc2Cl)o1)N1N=C(C(F)F)CC1(O)C(F)F (stereo not given)
    -11%	9%	?	-35%	-12%	11%	-5%	5%
> Nc1ccc(Br)cc1
    /	-3%	-22%	/	-2.0%	/	/	16%
> COC(=O)c1ccc(NS(=O)(=O)c2ccc(OC)cc2)cc1
    -4%	1%	51%[activator]	-12%	-4.9%	-9%	-8%	2%
> O=C(COC(=O)c1ccc(O)cc1O)NNC(=O)c1cccs1
    ?	/	16%	-9%	/	-10%	/	8%
> O=C(COC(=O)C12CC3CC(CC(Br)(C3)C1)C2)Nc1ccc2[nH]c(=O)[nH]c2c1
    ?	/	-6%	?	/	1%	/	11%
> CCC(=O)NNC(=O)CCC(=O)Nc1ccc(C)cc1C
    3%[46.1 µM]	/	-13%	?	/	-4%	/	8%
